N370S GC mod – qHTS Assay for Inhibitors and Activators of N370S glucocerebrosidase as a Potential Chaperone Treatment of Gaucher Disease; 330,000 compounds, 0.092% hits; Potency, µM (titrated, usually from 59.4 µM), for inactives: at the highest dose activity change, negative = inhibition, actives largely listed as inhibitors; Lysosomal acid glucosylceramidase (Homo sapiens), P04062; AID 2101, 2009; N370S GC spleen homogenate, 4MU-glucoside fluorescence;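 further: 0% = full enzyme activity and -100% = no enzyme basal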
FEN1 inh – qHTS Assay for the Inhibitors of Human Flap endonuclease 1 (FEN1); Potency, µM (titrated, usually from 114 µM), for the others: at the top dose activity change, negative = inhibition, actives largely listed as inhibitors; AID 588795, 2011; Recombinant FEN1 flap cleavage, fluorescence, 15 min; 390,000 compounds, 0.35% hits; further: nearly all actives have a fitted effect of over 65% in size
Target sequence (P39748 whole entry, looked up): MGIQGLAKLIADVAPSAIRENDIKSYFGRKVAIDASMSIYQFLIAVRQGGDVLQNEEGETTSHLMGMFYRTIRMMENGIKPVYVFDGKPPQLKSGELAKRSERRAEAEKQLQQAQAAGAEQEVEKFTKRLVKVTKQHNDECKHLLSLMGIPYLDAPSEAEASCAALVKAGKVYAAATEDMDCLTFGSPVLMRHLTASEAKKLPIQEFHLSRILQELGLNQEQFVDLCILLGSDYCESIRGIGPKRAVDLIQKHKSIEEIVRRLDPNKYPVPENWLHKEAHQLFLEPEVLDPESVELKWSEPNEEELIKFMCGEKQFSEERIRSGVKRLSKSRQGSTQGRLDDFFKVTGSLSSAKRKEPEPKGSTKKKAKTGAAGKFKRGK
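FEN1 at 10 nM, compound pretreatment for 15 min (room temperature), 50 nM final substrate to initiate; endpoint reads at 0 and 15 min; DMSO-only plates used as vehicle background.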
Starred values were filed as active, the others as inactive; ? = inconclusive; · = not tested or not shown; & = joins results of further samples; [ ] = another dose, or the depositor's remark. The call rests on the fitted dose curve; in most records, active means well fitted curve in the direction sought with a large enough effect; inconclusive means small, poorly fitted or top-dose-only effect, or another doubt; inactive means no such curve, though single readings can be large; an effect the other way counts as inactive or inconclusive. Unless noted, on the % scale 0 is the no-effect control and ±100 the full control effect; potency means the concentration at half of the fitted maximal effect. Some of the compounds tested; most or all hits stand in other tables.

Below each SMILES: N370S GC mod	FEN1 inh
> CN(C)S(=O)(=O)Nc1ccc2c(c1)OCO2
  -16%	-2%
> Cc1ccc(/C=N/n2c(C3CCCCC3)n[nH]c2=S)s1
  -9%	0%
> O=C(CSc1ccc(Cl)cc1)NC(=O)c1ccccc1
  ·	8%
> CCOC(=O)c1c(C)n(C)c2ccc(O)c(CN3CCC(C)CC3)c12
  1%	-14%
> O=c1[nH]c2cc3c(cc2cc1C(c1nnnn1CC1CCCO1)N1CCCCCC1)OCO3 (stereo not given)
  28%	·
> COc1cc(CNc2cccc(C(=O)O)c2)cc(Br)c1OCC(=O)NC(C)(C)C
  -2%	0%
> COc1ccccc1NC(=O)CSc1nnnn1-c1ccc(C(=O)O)cc1
  11%	0%
> Cc1ccc2oc(-c3ccco3)nc2c1
  -15%	2%&7%
> CCN(CC)CCN(C(=O)c1ccc2ccccc2c1)c1nc2ccc(OC)cc2s1
  -12%	-23%
> O=C(CN1C(=O)NC2(CCOc3ccccc32)C1=O)Nc1ccc(Br)cc1F (stereo not given)
  ·	-9%
> C=CCNC(=O)C(=O)NN=C1CCN(C)CC1
  1%	-5%
> COc1cc(OC)c(OC)cc1CN1CCN(c2ccccc2OC)CC1
  2%	-19%
> O=C(C1Cc2ccccc2O1)N1CCCCC1 (stereo not given)
  -14%[2.35 µM]	14%
> Cc1ccc(CNC(=O)c2ccc3c(c2)nc2n3CCCC2)cc1
  ·	-4%
> O=[N+]([O-])c1ccc(CN2CCOCCOCCN(Cc3ccc([N+](=O)[O-])cc3)CCOCC2)cc1
  -3%	-9%
> CCCN(C(=O)c1ccco1)c1nnc(-c2ccncc2)s1
  -16%	-2%
> Cc1ccc(NC2c3ccccc3C(=O)N2CCN2CCOCC2)cc1 (stereo not given)
  -8%	-2%
> COc1ccccc1/C=N/N1C(=O)C(CC(=O)Nc2ccc([N+](=O)[O-])cc2OC)SC1=Nc1cccc(C)c1C (stereo not given)
  -6%	·
> c1ccc(Cn2ncc3c(N4CCOCC4)ncnc32)cc1
  14%	-3%
> CCN(CC)S(=O)(=O)c1cccc(-c2nnc(SCC(=O)N3CCC(C(=O)O)CC3)n2N)c1
  4%	14%
> O=C1/C(=C/c2c[nH]c3ccccc23)CCC/C1=C\c1c[nH]c2ccccc12
  -22%	11%
> COC(=O)c1ccc(OC(=O)c2nn(C)cc2Cl)c(OC)c1
  -8%	0%
> COC(=O)c1ccc(CSC2=NC[C@@H]3[C@@H]4C(=O)N(C)C(=O)[C@@H]4[C@](C)(C(=O)OC)N23)cc1
  ·	-5%
> O=C(NC1CCCCC1)c1cccc2c1C(=O)c1ccc(N3CCCC3)cc1S2(=O)=O
  ·	13%
> CCn1c(C(C)NC(=O)c2ccccc2C)n[nH]c1=S (stereo not given)
  6%	-4%
> Cc1ccc(-n2nnnc2Sc2ccc(S(=O)(=O)NCCN(C)C)cc2[N+](=O)[O-])cc1
  -9%	1%
> CC(C)CNS(=O)(=O)c1cc(C(=O)OCC(=O)N2CCOCC2)c(Cl)cc1Cl
  0%	-10%
> O=S(=O)(c1ccc(Cl)cc1Cl)n1ccc2cccnc21
  6%	3%
> O=C(NCC(=O)N(CCN1CCOCC1)C(C(=O)NC1CCCC1)c1cccs1)c1ccco1 (stereo not given)
  10%	-9%
> COc1ccccc1N1CCN(C(=O)CCc2nnc3ccc(N4CCC(C)CC4)nn23)CC1
  3%	-12%
> Cc1ccc(C(=O)Nc2nnc(-c3cccs3)s2)cc1C
  2%	-2%
> S=C(Nc1ccc(Br)cc1)NC1CCCCC1
  7%	1%
> COc1ccc2oc(-c3ccc(NC(=O)c4ccc(Cl)cc4Cl)cc3)nc2c1
  ·	-6%
> Cc1ccc(Nc2nnc(SCc3ccccc3)s2)cc1
  7%	1%
> COc1ccc(NC(=O)CCN2CCCC(C)C2)cc1 (stereo not given)
  7%	3%
> O=C1c2cccnc2C(O)N1Cc1cccs1 (stereo not given)
  ?	5%
> CCC(C)(C(=O)NC1CCCCC1)N(C(=O)c1ccccn1)c1ccc(C)cc1 (stereo not given)
  20%	6%
> COc1ccc(C)cc1NC(=O)C1CCCCC1C(=O)O (stereo not given)
  -10%	2%
> CCCN1C(=O)/C(=c2\s/c(=C3\C=Cc4ccccc4N3CC)c(=O)n2-c2ccccc2)SC1=S
  8%	·
> Cc1ccc(NC(=O)CC2C(=O)NCCN2C(=S)Nc2ccccc2)c(C)c1 (stereo not given)
  13%	1%
> O=C(CCN=C1NS(=O)(=O)c2ccccc21)OCc1nnc(-c2ccc([N+](=O)[O-])cc2)o1
  ·	5%
> CC/C=C\C/C=C\C/C=C\C/C=C\C/C=C\C/C=C\CCC(=O)O
  7%&-11%&-8%	·
> Cc1ccc(CC(=O)NNC(=O)c2cccs2)cc1C
  -6%	2%
> COc1ccc(S(=O)(=O)N2CCC(C(=O)N3CCc4ccccc4C3)CC2)cc1C
  5%	-5%
> CC(c1ccccc1)n1c(NCCCn2ccnc2)nc2c1c(=O)[nH]c(=O)n2C (stereo not given)
  -3%	·
> Cc1cc(-c2csc(N)n2)c(C)n1C
  9%	?
> CC(OC(=O)CCN1C(=O)C2CC=CCC2C1=O)C(=O)Nc1cccc(C#N)c1 (stereo not given)
  -5%	0%
> COCc1cc(C(C)=O)ccc1OCC(=O)Nc1ccc(NC(C)=O)cc1
  -10%	-3%
> O=C(C[n+]1cn(C(F)F)c2ccccc21)c1ccc(Br)cc1
  3%	2%
> Cc1cc(C)n2nc(CC(=O)NC3CCCCCCC3)nc2n1
  19%	-4%
> Cc1nnc(Sc2nc3ccccc3o2)c2ccccc12
  -6%	-5%
> O=S(=O)(NCC(c1ccco1)N1CCN(c2ccccc2)CC1)c1ccc(F)cc1 (stereo not given)
  -6%	1%
> Cc1cccc(OCCC(=O)NCC(=O)Nc2c(C)cccc2C)c1
  -9%	-3%
> Cc1cc(O)ccc1N/C=C1\CCCC1=O
  4%	1%
> COc1ccc(S(=O)(=O)NC(C)C(=O)Nc2cccc(C(C)=O)c2)cc1 (stereo not given)
  1%	-1%
> O=C(COc1ccc(Br)cc1)Nc1ccc(NC(=O)c2ccccc2)cc1
  -5%	1%
> CN/C=C1\C(=O)C(C)(C)Oc2ccc3ccc(=O)oc3c21
  2%	-8%
> Cc1nnc(NC(=O)CSc2ccc3nnc(-c4ccccn4)n3n2)s1
  1%	-1%
> CN(Cc1cccc(Cl)c1)C(=O)C1CCN(C(=O)Nc2ccccc2)CC1
  -15%	0%
> Cc1ccc(NC(=O)COc2cccc3c2OC(C)(C)C3)c(O)c1
  ·	1%

Going on with the list:
Below each SMILES: N370S GC mod	FEN1 inh
> O=C(CCn1cnc2onc(-c3ccc(F)cc3)c2c1=O)N1CCN(c2ccccc2)CC1
  ·	-14%
> CCC1Sc2ccc(S(=O)(=O)CCC(=O)Nc3ccc(OC(F)(F)F)cc3)cc2NC1=O (stereo not given)
  ?	-5%
> Cc1cccc(N2CCN(C(=O)c3cccc(N4CCCC4=O)c3)C(C)C2)c1 (stereo not given)
  -10%	-26%
> Nc1ccnn1Cc1cccs1
  -9%	0%
> CC(=O)Oc1ccc(-c2csc(Nc3ccc(S(N)(=O)=O)cc3)n2)cc1
  -7%	-19%
> CCOc1ccccc1NS(=O)(=O)c1c(C(=O)OC)sc2cccc(F)c12
  ·	-3%
> COc1ncnc(OC)c1NC(=O)c1ccc(F)cc1
  0%	-11%
> C=CCN(c1ccccc1C(=O)NCC(=O)OCC)S(=O)(=O)c1ccc(C)cc1
  -2%	-1%
> O=C(Cc1ccccn1)c1ccc(Cl)cc1
  -2%	-15%
> O=C(CN(Cc1ccc(F)cc1)C(=O)CNS(=O)(=O)c1ccccc1)NCC1CCCO1 (stereo not given)
  3%	1%
> COC(=O)c1c(NC(=O)c2ccccc2C(=O)O)sc2c1CCCC2
  ·	2%
> CC(C)Oc1ccc(C(=O)N(Cc2ccco2)C2CCS(=O)(=O)C2)cc1 (stereo not given)
  4%	-11%
> CCOC(=O)c1snc2c(=O)[nH]cnc12
  16%	-4%
> FC(F)(F)c1cc(-c2ccco2)nc(-n2nc(C(F)(F)F)cc2C2CC2)n1
  11%	4%
> O=c1sc2ccccc2n1CCOc1ccccc1
  13%	0%
> Cc1c(Cl)cccc1NC(=S)NCCC(c1ccccc1)c1ccccc1
  7%	-8%
> CCOC(=O)/C(=C/c1ccc(OC(F)F)cc1)C1=Nn2c(nnc2-c2ccc(Cl)cc2)SC1
  ·	-28%
> Cc1ccc(S(=O)(=O)Nc2ccc3nc(C)sc3c2)cc1
  6%	-2%
> Cc1ccc(S(=O)(=O)N2CCCCC2)cc1NC(=O)CSc1ncn[nH]1
  0%	?
> Cc1ccc(C(=O)CSc2nnc(-c3cccnc3)n2N)cc1
  2%	2%
> O=C(Cc1ccccc1)NNC(=O)Nc1ccccc1
  2%	-1%
> CC(=O)NCc1c(Cl)cccc1-n1cccc1
  -7%	-7%
> COCCNC(=O)CSc1nc(-c2ccccc2)[nH]c1-c1ccc(C)cc1
  ·	13%
> CCCn1c(SCC(=O)NCC)nc2sc3c(c2c1=O)CCC3
  -14%	10%
> O=C(/C=C/c1ccc(Cl)cc1)Nc1ccc(CN2CCOCC2)cc1
  -7%	-3%
> COc1cc(/C=C/C(=O)O)cc(S(=O)(=O)Nc2cccc(S(=O)(=O)N3CCOCC3)c2)c1OC
  -9%	-2%
> COC(=O)c1ccc2ncccc2c1
  3%	-10%
> NS(=O)(=O)c1ccc(CCNC(=O)COC(=O)C2COc3ccccc3O2)cc1 (stereo not given)
  ·	0%
> CCOc1ccc(/C(O)=C2/C(=O)C(=O)N(CC3CCCO3)C2c2ccco2)cc1 (stereo not given)
  -1%	2%
> Cc1ccc(N2CN=c3s/c(=C\c4cccnc4)c(=O)n3C2)cc1
  8%	-4%
> Cc1ccc(S(=O)(=O)NC(CC(C)C)C(=O)N2CC(C)OC(C)C2)cc1 (stereo not given)
  -3%	-7%
> O=C(OC1CCOC1=O)c1cccc(S(=O)(=O)Nc2ccc(F)cc2)c1 (stereo not given)
  5%	0%
> Cc1ccc(S(=O)(=O)NC(=O)Nn2c(C)nnc2C)cc1
  0%	-2%
> Cc1ccc(-c2csc3ncnc(Nc4ccc(N5CCOCC5)cc4)c23)cc1
  4%	1%
> Cc1c(C(=O)N2CCN(CCc3ccccc3)CC2)oc2ccccc12
  -15%	-11%
> COc1cccc(-c2cc(C(=O)N3CCN(C(=O)c4ccco4)CC3)on2)c1
  0%	12%
> O=C(CNC(=O)C12CC3CC(CC(C3)C1)C2)OCC(=O)N1CCCCC1
  -5%	2%
> CC(C)[C@H](NC(=O)C1CC(=O)N(c2ccc3c(c2)OCO3)C1)C(=O)NC1CCCC1 (stereo not given in full)
  -13%	8%
> Cc1ccc(C(=O)NC(=S)Nn2cnnc2)cc1
  -1%	5%
> COc1ccccc1OCCn1cc(C=O)c2ccccc21
  26%	-2%
> CCC(=O)Nc1nc2ccccc2n1Cc1ccc(Cl)cc1
  2%	-4%
> NS(=O)(=O)c1ccc(N/N=C/c2cn(-c3ccccc3)nc2-c2cccs2)c([N+](=O)[O-])c1
  9%	1%
> Cc1cccnc1NC(=S)NC(=O)c1cncc(Br)c1
  2%	-5%
> COc1cccc(Nc2nc3cc(OC)ccc3cc2C#N)c1
  11%	3%
> O=C(C/C=N\OCc1ccc([N+](=O)[O-])cc1)Nc1ccc(Cl)cc1
  17%	-3%
> CCC1=Nc2cc(C(=O)NCCCN3CCN(C)CC3)ccc2Sc2ccccc21
  -19%	3%
> CCc1ccc(C(=O)Nc2cc(S(=O)(=O)N3CCOCC3)ccc2N2CCOCC2)cc1
  ·	-9%
> Cc1ccc(C(C(=O)NCc2ccco2)N(C(=O)CNC(=O)c2cccs2)c2ccc(C)cc2)cc1 (stereo not given)
  -4%	-1%
> O=C(Nc1nnc(-c2ccc(Br)cc2)o1)c1cccc(N2C(=O)CCC2=O)c1
  -5%	7%
> Cc1ccc(NC(=O)CC(C)S(=O)(=O)c2ccc3c(c2)NC(=O)CO3)c(C)c1 (stereo not given)
  ·	-1%
> Cc1nnc(SCC(=O)Nc2ccc(Cl)cn2)s1
  20%	-2%
> CSc1ncc(C(=O)Nc2ccccc2C(=O)c2ccccc2)c(C(F)(F)F)n1
  ·	-11%
> Cc1ccc2c(c1)[nH]c1c(=O)n(CCCN3CCOCC3)cnc12
  -10%	-5%
> CCOC(=O)C(Sc1n[nH]c(N)n1)c1ccccc1 (stereo not given)
  6%	1%
> Cc1c(C(=O)Nc2ccc3oc(-c4cccnc4)nc3c2)oc2ccccc12
  22%	-10%
> O=C(NC1CCCCCC1)C(=S)N1CCCC1
  4%	1%
> O=C(NC1CCCCC1)c1ccc(-c2cccc([N+](=O)[O-])c2)o1
  2%	-12%
> COCC1CCCCN1C(=O)c1cccc(OC2CCN(S(C)(=O)=O)CC2)c1 (stereo not given)
  4%	17%
> Cc1cc(C)nc(N2CCC(C(=O)NCc3ccco3)CC2)n1
  -2%	6%
> O=C(CSCc1ccccc1)Nc1ccc(S(=O)(=O)Nc2ncccn2)cc1
  1%	7%

Sorted by value in FEN1 inh (descending): three from the list above.
canonical_smiles | FEN1 inh
O=C(Nc1nnc(-c2ccc(Br)cc2)o1)c1cccc(N2C(=O)CCC2=O)c1 | 7%
O=C(NC1CCCCCC1)C(=S)N1CCCC1 | 1%
CCc1ccc(C(=O)Nc2cc(S(=O)(=O)N3CCOCC3)ccc2N2CCOCC2)cc1 | -9%

Source: PubChem
